Sa growth inh – S. aureus growth inhibition. actives 0.53% (n = 170,000). S. aureus RN4220 growth, OD600, 20 h, 42 °C; active compounds read low. AID 720641. relative growth, % (concentration not given with the values);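 active means growth at 42 °C up to 50% and 20 or more points under that at 30 °C, or under 10% at both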;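 further: 300 nL library stock went into each well; scaled to the means of positive and negative controls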
HCMV UL50-53 inh – inhibitors of HCMV UL50-UL53 nuclear egress complex interaction. HTRF UL50-UL53 interaction, normalized percent inhibition. inhibition, % (no concentration beside the values). actives 0.15% (n = 190,000). AID 1918969;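 active means both replicates at 50% or more, plus weaker picks with an unusually low signal ratio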;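 further: stock transfer was 100 nL into about 20 µL; 0% = negative control wells and 100% = wells with untagged competitor protein; inactives centre near -12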
GIV-Gai inh – inhibitors of GIV GBA-motif binding to rat Galpha-i3 | AID 1224905 | Galpha-i3/FITC-GIV peptide fluorescence polarization, 90 min; active compounds read low; scaled: aluminum fluoride 0%, vehicle 100% | actives 0.42% (n = 210,000) | P08753 | percent of control (FP), % (no concentration beside the values);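 active means replicate mean at 85% of control or lower, very high polarization wells dropped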;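 further: wells of about 15 µL received 100 nL stock; the first replicate is given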
Target sequence (P08753 whole entry, looked up): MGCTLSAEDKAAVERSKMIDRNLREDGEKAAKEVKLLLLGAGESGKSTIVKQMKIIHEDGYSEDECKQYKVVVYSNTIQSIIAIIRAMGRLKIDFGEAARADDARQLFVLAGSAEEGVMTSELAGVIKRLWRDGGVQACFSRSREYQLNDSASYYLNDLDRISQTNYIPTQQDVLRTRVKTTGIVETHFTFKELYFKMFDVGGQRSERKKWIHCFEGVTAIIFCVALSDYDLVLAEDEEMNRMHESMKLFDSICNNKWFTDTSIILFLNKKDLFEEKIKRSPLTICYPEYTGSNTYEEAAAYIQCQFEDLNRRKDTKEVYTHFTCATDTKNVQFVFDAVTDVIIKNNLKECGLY
Sa growth inh second temp – recorded beside Sa growth inh, whose call it bears; relative growth, %; measured here: growth at 30 °C;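 optical density after 20 h as mean of two plates; 100% = untreated growth and lower means inhibition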
* marks the source's active call; other numbers are inactive results; / = not tested or not shown; & = joins results of further samples; ! = not active in a repeat.

SMILES	Sa growth inh	Sa growth inh second temp	HCMV UL50-53 inh	GIV-Gai inh
Cc1c(C(=O)NC(C)c2ccccc2)sc2nc3n(c(=O)c12)CCCC3 (stereo not given)	110.5	97.8	-17.4	97.1
CN(Cc1ccccc1)C(=O)Cn1ncc2ccsc2c1=O	100.2	84.0	5.2	102.6
COc1ccc(C2CC(=O)C3=C(C2)Nc2onc(C)c2C3C(C)C)cc1 (stereo not given)	/	/	-0.4	101.7
Cc1cc(C(=O)NN2C(=O)CSC2c2ccc(-n3ccnc3)cc2)c(C)o1 (stereo not given)	101.1	100.6	-4.2	/
CCN(Cc1ccccc1)C(=O)C1CC2CCCN2C12C(=O)Nc1ccccc12 (stereo not given)	94.1	93.3	-7.1	103.7
Fc1cccc(Cl)c1-c1nnc2ccc(C(F)(F)F)cn12	99.0	94.8	3.5	99.2
Cc1ccc(-c2nc3ccccc3c(=O)o2)cc1	80.4	52.4	1.9	/
Cc1cccc(C)c1OCc1nc2c3cnn(-c4nc5ccccc5s4)c3ncn2n1	103.6	95.0	6.3	112.1
CC1=C/C(=N\Nc2nc(C)cc(=O)[nH]2)CC(C)(C)C1	82.2	90.9	-25.2	/
CCc1c(C)nc2ncnn2c1Nc1ccc2c(c1)OCCO2	/	/	-13.2	100.2
O=C(Nc1ccc(F)cc1)C1Nc2cc(F)ccc2S(=O)(=O)N1 (stereo not given)	/	/	-8.3	108.9
Cc1ccc(C)c(S(=O)(=O)NCc2ccc(C(=O)N3CCN(C)CC3)cc2)c1	97.2	98.9	-7.7	109.7
O=C(OCC(=O)N1CCCC1)c1ccc(Cl)c(Cl)c1	104.2	94.0	-0.6	/
CCN1/C(=C\C=C2/C(=O)NC(=O)N(C)C2=O)Sc2ccccc21	94.4	99.7	-43.9	-61.2*
N#CC1(NC(=O)COC(=O)CSc2ccc(F)cc2)CCCCC1	96.7	83.0	-12.3	/
O=C(Nc1cccnc1)c1ccc(COCC(F)(F)F)cc1	101.7	82.7	/	104.3
O=C(CSc1nnc(Cc2ccccc2)n1Cc1ccccc1)NCc1ccco1	115.5	81.7	-22.0	100.4
Cc1nc(NNC(=O)c2ccccc2)cc(-c2ccccc2)n1	91.3	106.2	5.1	107.8
Cc1cc2oc(C(=O)Nc3cccc(-c4nc5ccccc5o4)c3)c(C)c2cc1C	106.3	94.1	-2.8	111.9
Cc1oc2ncn(CC(C)C)c(=O)c2c1C(=O)N1CCN(c2ccc(F)cc2)CC1	73.2	89.1	/	101.7

Sorted by count of non-hydrogen atoms (rising): some entries from above.
SMILES	Sa growth inh	Sa growth inh second temp	HCMV UL50-53 inh	GIV-Gai inh
Cc1ccc(-c2nc3ccccc3c(=O)o2)cc1	80.4	52.4	1.9	/
CC1=C/C(=N\Nc2nc(C)cc(=O)[nH]2)CC(C)(C)C1	82.2	90.9	-25.2	/
Fc1cccc(Cl)c1-c1nnc2ccc(C(F)(F)F)cn12	99.0	94.8	3.5	99.2
CN(Cc1ccccc1)C(=O)Cn1ncc2ccsc2c1=O	100.2	84.0	5.2	102.6
CCN1/C(=C\C=C2/C(=O)NC(=O)N(C)C2=O)Sc2ccccc21	94.4	99.7	-43.9	-61.2*
N#CC1(NC(=O)COC(=O)CSc2ccc(F)cc2)CCCCC1	96.7	83.0	-12.3	/
Cc1c(C(=O)NC(C)c2ccccc2)sc2nc3n(c(=O)c12)CCCC3 (stereo not given)	110.5	97.8	-17.4	97.1
Cc1cc(C(=O)NN2C(=O)CSC2c2ccc(-n3ccnc3)cc2)c(C)o1 (stereo not given)	101.1	100.6	-4.2	/
Cc1ccc(C)c(S(=O)(=O)NCc2ccc(C(=O)N3CCN(C)CC3)cc2)c1	97.2	98.9	-7.7	109.7
CCN(Cc1ccccc1)C(=O)C1CC2CCCN2C12C(=O)Nc1ccccc12 (stereo not given)	94.1	93.3	-7.1	103.7
O=C(CSc1nnc(Cc2ccccc2)n1Cc1ccccc1)NCc1ccco1	115.5	81.7	-22.0	100.4
Cc1cccc(C)c1OCc1nc2c3cnn(-c4nc5ccccc5s4)c3ncn2n1	103.6	95.0	6.3	112.1

Additional structures follow:
SMILES	Sa growth inh	Sa growth inh second temp	HCMV UL50-53 inh	GIV-Gai inh
COc1cc(OC)cc(-c2nc3ccccc3c(=O)n2NC(=O)c2ccc(OC)c(Br)c2)c1	/	/	-5.3	102.5
CC1(C)S[C@@H]2[C@H](NC(=O)[C@H](N)c3ccccc3)C(=O)N2[C@H]1C(=O)O	-0.9*!	-0.6*	-17.0&-20.9&-9.4	105.1
O=c1c2cnn(-c3ccc(F)cc3)c2ncn1Cc1ccccc1Cl	91.0	87.0	-27.8	101.5
Cc1ccc(-n2nc3c(=O)n(CCCC(=O)NC(C)c4ccccc4)nc(C)c3c2C)cc1 (stereo not given)	106.5	86.4	/	108.8
CCOC(=O)c1sc(NC(=O)C(C)Oc2ccc(OC)cc2)c(C(=O)OCC)c1C (stereo not given)	101.1	104.3	1.0	102.0
CCCSCCCNC(=O)C1CCN(C(=O)c2cc3sccc3n2C)CC1	83.4	91.4	0.8	104.9
NNc1nc2ccccc2s1	74.2	31.1	-18.0	/
CCc1ccc(CNC(=O)Cn2c(-c3cccs3)cc3cc(F)ccc32)cc1	99.5	92.8	6.1	112.5
CC(=O)Nc1ccc(S(=O)(=O)n2cnc3ccccc32)cc1	102.2	93.3	-11.4	/
CCc1ccc(S(=O)(=O)Nc2cc3c(C(=O)OCc4ccccc4)c(C)oc3c3ccccc23)cc1	105.1	77.4	-32.2	110.0
O=c1[nH]sc2ccccc12	-1.8*	-0.8*	9.6	/
Cc1cc(-c2nn3cnnc3s2)no1	/	/	-5.4	104.1
COc1cccc(-n2cc(C(=O)Nc3cccnc3)c3ccccc3c2=O)c1	74.7	69.2	/	105.8
COC(=O)c1sc(=S)n(-c2ccc(C)cc2)c1N	97.8	105.7	-5.6	108.3
CCn1c(C)cc(C(=O)CSc2nnc(CN(c3ccc(F)cc3)S(C)(=O)=O)n2C)c1C	/	/	-23.6	102.1
COc1nc(Nc2ccc(F)cc2)nc(OC)n1	109.6	84.2	/	106.6
COc1ccc(Cn2c(CO)cnc2SCC(=O)Nc2ccc3c(c2)OCCO3)cc1	105.9	87.2	/	99.1
COC(=O)c1ccc(C)c(N(CCO)CCO)c1	103.9	90.2	-2.4	/
CC1=CC(C)C(/C=N/n2cnnc2)C(C)C1 (stereo not given)	92.3	90.2	-9.7	/
O=C(O)CSC1(SCC(=O)O)CCCCCC1	101.6	93.8	/	108.8
O=C(CSc1nc2ccccc2c2nc3ccccc3n12)c1ccccc1	84.1	83.2	/	96.2
N#CCn1c2ccc(Cl)cc2c2nc3ccccc3nc21	95.1	103.2	7.1	107.6
O=C(CNC(=O)c1ccc2ccccc2c1)OCn1nnc2ccccc2c1=O	79.2	69.9	-34.8	/
Cc1noc2ncnc(NC(C)(C)CCO)c12	105.6	90.1	-25.9	95.8
Cc1nnc(SCC(=O)N(c2ccccc2)c2ccccc2)nc1C	93.6	89.6	-13.8	103.2
NC(=O)CCN(C1CCCCC1)S(=O)(=O)c1cccc2nsnc12	97.1	76.6	-57.5	106.3
O=C(NCc1cccs1)c1nn(-c2ccccc2F)nc1CO	108.7	95.4	-2.2	98.5
COc1cccc2c1cc1c(=O)n(CC(=O)N3CCN(c4ccc(F)cc4)CC3)nc(C)n12	116.5	86.4	-9.2	96.9
Cc1cc2nc(C)n(CC(=O)N(C)c3ccccc3)c2cc1C	81.7	78.4	-18.5	96.3
CCOC(=O)/C=C1\NC(C)(C)Cc2cc(OC)c(OC)cc21	93.5	92.8	-36.4	99.4
C#CCn1c(=NC(=O)CSCC(=O)Nc2cc(C)on2)sc2ccccc21	93.8	84.5	-24.4	101.6
CCc1c(C)n([O-])c2c([n+]1=O)CCCC2	104.7	97.5	-23.3	100.6
O=C(c1cc(=O)[nH]c2ccccc12)N1CCc2ccccc2C1	102.3	102.3	-19.7	/
O=S(=O)(/C=C/c1ccccc1)c1ccc(F)c(Cl)c1	100.5	77.8	-9.7	96.7
COc1cccc(NC(=O)c2nn(C)c3c2COc2ccccc2-3)c1	90.0	81.0	-18.6	98.6
CCCc1noc(-c2cc(S(=O)(=O)NCC)ccc2OC)n1	/	/	6.2	98.7
COC(=O)c1ccc(NC(=O)CSc2nc3ccc(OC)cc3[nH]2)cc1	92.5	88.6	5.3	102.1
COc1ccc(S(=O)(=O)CCC(=O)Nc2ccc(OC(F)(F)F)cc2)cc1	91.3	80.3	/	108.2
Cc1cc(C)c2c(-n3cccc3)nn(CC(=O)Nc3ccc(Cl)cc3)c2n1	/	/	-26.7	102.9
COc1ccccc1CNc1ccc(-c2nc(-c3ccccn3)no2)cc1[N+](=O)[O-]	77.5	86.6	-14.5	102.4

Sorted by the number under GIV-Gai inh (descending): 3 from the list above
Molecule	Sa growth inh second temp	GIV-Gai inh
COC(=O)c1ccc(NC(=O)CSc2nc3ccc(OC)cc3[nH]2)cc1	88.6	102.1
COc1cccc(NC(=O)c2nn(C)c3c2COc2ccccc2-3)c1	81.0	98.6
COc1cccc2c1cc1c(=O)n(CC(=O)N3CCN(c4ccc(F)cc4)CC3)nc(C)n12	86.4	96.9

Continuation.
SMILES	Sa growth inh	Sa growth inh second temp	HCMV UL50-53 inh	GIV-Gai inh
CCc1nc(NCCN2CCOCC2)c(C#N)c2c1COC(C)(C)C2	94.7	90.0	-9.6	97.5
CCSC1=C(C#N)C2(CCCCC2)C(C#N)=C(N)N1	108.0	64.8	-29.0	99.0
Cc1ccc(-c2nc3cccnc3s2)cc1NC(=O)C(C)C	97.3	92.0	3.1	107.8
Cc1cccc(-c2cc(N3CCC(C(=O)N4CCC(C)CC4)CC3)ncn2)c1	/	/	-1.5	106.0
CCn1cnc(S(=O)(=O)N2CCCC(C(=O)NC3CC3)C2)c1 (stereo not given)	/	/	10.2	109.2
OCCN1CCN(CCN2CCn3c2nc2ccccc23)CC1	81.0	86.2	-10.1	100.2
CC(C)CNP(=O)(OC1CC(C)CCC1C(C)C)c1ccccc1 (stereo not given)	97.7	81.9	/	98.1
CC(C)c1cc(NCc2ccccn2)n2c(nc3ccccc32)c1C#N	103.3	93.4	-15.4	99.9
O=S1(=O)CCC(N2C(=S)SC3CS(=O)(=O)CC32)C1 (stereo not given)	90.5	84.2	4.4	96.8
Cc1noc2nc(C(=O)NCCC3=CCCCC3)nc(N3CCOCC3)c12	73.5	78.5	-31.5	104.0
Cc1ccccc1OCC(=O)N(C)Cc1c(C)nn(C2CCS(=O)(=O)C2)c1C (stereo not given)	82.6	89.8	-22.2	/
CCC(=O)NC1CC(C(C)(C)NC(=O)CC)CC=C1C (stereo not given)	111.7	98.5	-2.8	/
Cc1ccc(-c2nc3cc(NC(=O)Cc4ccc(Cl)cc4)ccc3o2)cc1	97.5	92.7	-56.9	107.8
COc1cc(C(=O)N2CCN(C(=O)C(Cc3cc(C)ccc3C)NC(C)=O)CC2)cc(OC)c1OC (stereo not given)	110.4	77.3	-7.5	107.2
CN1CCN(C(=O)CCC(=O)c2ccc(F)cc2)CC1	111.9	99.2	12.2	/
C=CCSc1nc2c(c(=O)[nH]1)C(c1ccc(F)cc1F)CC(=O)N2 (stereo not given)	/	/	-15.7	99.5
O=C(NCC1CCCO1)c1cc(-c2ccncc2)n[nH]1 (stereo not given)	/	/	7.4	103.4
FC(F)(F)c1cccc(/C=N/n2cnnc2SCc2ccccc2)c1	94.6	95.8	/	101.1
CC(C)c1ccc(NC(=O)CN2C(=O)COc3ccc(S(=O)(=O)N4CCOCC4)cc32)cc1	116.2	86.8	/	112.4
CCN(CC)CCNC(=O)C1CCN(c2cc(C)nc3c(-c4ccc(Cl)cc4)c(C)nn23)CC1	82.5	90.4	-9.0	110.1
COc1ccc(-c2cc(C(=O)N3CCCC3C(=O)O)c(C)o2)cc1OC (stereo not given)	94.3	103.9	-8.3	102.8
CCOc1ccc(CCNC(=O)c2c(C)oc3ncn(CC(C)C)c(=O)c23)cc1OCC	99.5	88.6	/	106.2
COc1cccc(CNC(=O)c2ccc3c(c2)c(C)c(C)n3Cc2ccccc2)c1	104.0	97.3	/	109.4
CC(=O)OC1=CSc2ccc(Br)c3cccc1c23	96.0	59.0	/	106.5
CCOC(=O)N1CCC(Nc2nc3ccc(C)cc3nc2-n2nc(C)cc2C)CC1	102.6	86.3	-2.3	101.8
O=C(CSc1nc2c(c(C(F)(F)F)n1)CCc1ccccc1-2)N1CCCC1	82.4	90.9	/	101.5
Cc1ccc(NC(=O)NCCOCCn2c(=O)oc3ccccc32)cc1C	101.6	88.0	-21.4	99.3
N#Cc1c(N2C(=O)C3C4C=CC(C4)C3C2=O)sc2c1CCC2 (stereo not given)	94.7	89.9	-4.3	104.9

Source: PubChem BioAssay (ICCB-Longwood Screening Facility, Harvard Medical School)
